Bead autofluor: counter-screen for toxin protease inhibitors: compound fluorescence. fluorescence intensity (concentration not given with the values). actives 3.1% (n = 360,000). compound autofluorescence counterscreen, microsphere flow cytometry; stronger effect = higher value;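 active means at least 3 SD above the mean of all compounds, about 16000 in these data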;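 further: 100 nL of 1 mM stock went into each well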
* hit, by the source's call.

SMILES	Bead autofluor
C[C@H](CO)N1C[C@H](C)[C@@H](CN(C)C(=O)c2cnccn2)Oc2cc(C#CCC3CCCC3)ccc2S1(=O)=O	3889
Cc1cc2c(c(=O)o1)C1(C)CC(C)(O2)c2c(cc(C)oc2=O)O1	5754
COc1ccc(-c2ccc(C(=O)NCc3cccs3)c3occc23)c(C)c1	4077
COc1cc(/C=C/C(=O)OCC(=O)Nc2ccc3[nH]c(=O)[nH]c3c2)ccc1OC(F)F	3635
COC(=O)[C@]12CCCCC=C1N(Cc1ccccc1)C(=O)[C@H](CC(=O)NCc1ccccc1)C2	4199
OC[C@@H]1CN(Cc2ccccc2)C[C@H](n2cnc3c(NC4CC4)ncnc32)O1	3880
COc1ccccc1-c1csc(C(O)(c2ccccc2)C(F)(F)F)n1 (stereo unspecified)	2901
COc1ccc(-c2cnc(C(O)c3ccc(CN4CCCCC4)cc3)[nH]2)cc1 (stereo unspecified)	3254
CCOC(=O)C1=CCN(S(=O)(=O)c2ccccc2C)C1c1ccc(F)cc1 (stereo unspecified)	4151
COc1ccc(NC(C)=O)cc1NC(=O)c1c(C)noc1C	3525
CCOC(=O)[C@]12CCCC=C1N(Cc1cccc3ccccc13)C(=O)[C@H](CC(=O)NCC1CCCCC1)C2	6014
COCC(=O)Nc1ccc2c(c1)[C@@H]1C[C@H](CC(=O)NCc3ccccc3)O[C@@H](CO)[C@@H]1O2	3623
CSc1ncnc2c1ncn2CCCNCc1ccc(C)o1	3815
COc1ccc2oc3c(ccc[n+]3C)c(=O)c2c1	6029
COc1ccc(CNC(=O)C2CCN(S(=O)(=O)N3CCC(C)CC3)CC2)c(OC)c1	3887
CCCc1c(C(=O)N/N=C(\C)c2ccc(CC(C)C)cc2)nnn1-c1nonc1N	3708
CCOC(=O)[C@]12Cc3ccccc3[C@H]1N(C(C)C)C(=O)c1cc(OC)ccc12	5873
CC(=O)c1ccc(OCC(=O)Nc2ccc3c(c2)OCO3)cc1	4370
Cc1cc(NC(=O)COC(=O)CCn2c(C)csc2=O)c([N+](=O)[O-])cc1C	2854
COCCNC(=O)C1(C)CCN(Cc2cccc(Oc3ccccc3)c2)C1 (stereo unspecified)	3515
C1CCC(NC2=NCCO2)CC1	2776
CCc1nc2ccc(C(=O)NCc3ccc4c(c3)OCO4)cn2c1N(CC)Cc1cccc(Br)c1	4297
CC(C)NC(=O)C1(C)CCN1C/C=C/c1ccccc1 (stereo unspecified)	3804
CCCNC(=O)C1(C)CCN(Cc2cccc(OC(=O)c3ccccc3)c2)C1 (stereo unspecified)	3603
O=C(CN1CCOCC1)NN=Cc1ccc([N+](=O)[O-])o1	2885
CC(C)C1C(=O)N(Cc2cn(Cc3ccco3)nn2)CCS(=O)(=O)N1Cc1ccc(-c2ccc(F)nc2)cc1 (stereo unspecified)	3989
CC(CC(c1ccccc1)N1CCc2ccccc2C1)=NO (stereo unspecified)	2800
O=C(C1CCCO1)N1CCN(C(=O)C23CC4CC(CC(C4)C2)C3)CC1 (stereo unspecified)	3497
CC(C)OC(=O)c1ccc2ccc(-c3ccccc3)nc2c1	6224
Cc1cc(C)n2c(Nc3ccc4c(c3)OCCO4)c(CCc3ccccc3)nc2n1	6031
CN1CCN(c2cc(CNC[C@H]3O[C@@H](n4cnc5c(=O)[nH]c(N)nc54)[C@H](O)[C@@H]3O)ccc2F)CC1	6540
c1ccc(CSc2nnc(NC3CCCCC3)s2)cc1	3258
CCOC(=O)[C@]12CCC=C1N(Cc1ccc3c(c1)OCO3)C(=O)[C@H](CC(=O)NCCc1ccccc1OC)C2	6615
Clc1ccc(-c2nc3c4ccccc4ccn3c2CC2CCCCC2)cc1	6306
CC(C)(C)Cc1c(-c2ccc(F)cc2)nc2ccc(Cl)cn12	4071
Cc1ccc(NC(=O)Nc2nnc([C@@H]3C[C@H](O)[C@@H](CO)O3)s2)cc1	3647
Cc1nc2sccn2c(=O)c1S(=O)(=O)NCC1CCN(Cc2ccc(Cl)cc2)CC1	4486
CC[C@@H]1CC2=C(C(=O)OC(C)(C)O2)[C@@H](CC)O1	5667
CCN1C(=O)[C@@H]2[C@@H]3CN(S(=O)(=O)c4ccccc4C)[C@@H](c4ccc(Cl)cc4)[C@@H]3C(=O)C[C@@H]2C1=O	5458
CC(C)NC(=O)Cn1nnc(-c2ccccc2)c1COc1ccc2ccccc2c1	4174
C[C@@H]1CN([C@H](C)CO)C(=O)CCCn2nncc2CO[C@H]1CN(C)C(=O)Nc1cccc2ccccc12	3561
COc1ncccc1-c1ccc2nncn2c1	3914
CC(C)N1CCC1(C)C(=O)Nc1ccccc1OC(F)F (stereo unspecified)	4263
CC(C)NC(=O)N(C)C[C@H]1Oc2cc(C#Cc3ccc(F)cc3)ccc2S(=O)(=O)N([C@H](C)CO)C[C@H]1C	3731
O=C(Nc1ccc2c(c1)OCCO2)C(c1cc2ccccc2o1)N1CCN(c2ccc(F)cc2)CC1 (stereo unspecified)	4526
O=C(c1[nH]c(C(F)(F)F)nc1-c1ccccc1)N1CCN(C(=O)C2CCCO2)CC1 (stereo unspecified)	5118
CSc1ccc(Cn2c(C)c(C(=O)NCc3cccc(C)c3)sc2=O)cc1	3799
CCCOc1ccccc1NC(=O)/C=C/c1ccc(OC)c(S(=O)(=O)N2CCOCC2)c1	4133
O=C1NC(=O)C2(CCCc3c([N+](=O)[O-])cccc32)N1 (stereo unspecified)	3771
CCCCCCN1C[C@@H](O)[C@H](n2cc(COC(=O)c3ccccc3)nn2)C[C@@H]1c1ccc(C)cc1	3051
COc1ccc(CN(C)C(=O)C(Cc2ccccc2)NC(=O)c2ccccc2)c(OC)c1OC (stereo unspecified)	3943
Cc1ccc(NC(=O)c2ccco2)cc1	3373
Cc1c(C(=O)NCc2ccccc2C(F)(F)F)sc(=O)n1Cc1ccc(Cl)c(Cl)c1	5740
COc1ccc(OC)c(NC(=O)CCNC(=O)N2CC(=O)Nc3ccccc32)c1	2946
NC(=O)C1CCN(C(=O)c2ccc(NS(=O)(=O)/C=C/c3ccccc3)cc2)CC1	3299
C[C@@H]1CN([C@@H](C)CO)C(=O)CCCn2nncc2CO[C@@H]1CN(C)S(=O)(=O)c1ccc(Oc2ccccc2)cc1	3291
O=C(c1ccc(Cl)c(Cl)c1)N1CCC(=O)N([C@H](COCc2cccc(C(F)(F)F)c2)Cc2ccccc2)CC1	5532
COc1ccc(CC(N)c2csc(NC(=O)c3ccccc3OC)n2)cc1 (stereo unspecified)	4131
O=C(NC1CCC1)C1CCC(=O)N(Cc2ccc(Cl)cc2)C1 (stereo unspecified)	3593
COC(=O)[C@]12CCCCC=C1N(CCC1=CCCCC1)C(=O)[C@H](CC(=O)NCCC(C)C)C2	4083

Arranged by length of the SMILES (lowest first): some entries from above.
SMILES	Bead autofluor
c1ccc(CSc2nnc(NC3CCCCC3)s2)cc1	3258
CC(=O)c1ccc(OCC(=O)Nc2ccc3c(c2)OCO3)cc1	4370
CC[C@@H]1CC2=C(C(=O)OC(C)(C)O2)[C@@H](CC)O1	5667
CSc1ccc(Cn2c(C)c(C(=O)NCc3cccc(C)c3)sc2=O)cc1	3799
Cc1cc2c(c(=O)o1)C1(C)CC(C)(O2)c2c(cc(C)oc2=O)O1	5754
Cc1cc(C)n2c(Nc3ccc4c(c3)OCCO4)c(CCc3ccccc3)nc2n1	6031
CCCc1c(C(=O)N/N=C(\C)c2ccc(CC(C)C)cc2)nnn1-c1nonc1N	3708
OC[C@@H]1CN(Cc2ccccc2)C[C@H](n2cnc3c(NC4CC4)ncnc32)O1	3880
CCCOc1ccccc1NC(=O)/C=C/c1ccc(OC)c(S(=O)(=O)N2CCOCC2)c1	4133
CCOC(=O)[C@]12CCCC=C1N(Cc1cccc3ccccc13)C(=O)[C@H](CC(=O)NCC1CCCCC1)C2	6014
C[C@@H]1CN([C@H](C)CO)C(=O)CCCn2nncc2CO[C@H]1CN(C)C(=O)Nc1cccc2ccccc12	3561
CN1CCN(c2cc(CNC[C@H]3O[C@@H](n4cnc5c(=O)[nH]c(N)nc54)[C@H](O)[C@@H]3O)ccc2F)CC1	6540
C[C@@H]1CN([C@@H](C)CO)C(=O)CCCn2nncc2CO[C@@H]1CN(C)S(=O)(=O)c1ccc(Oc2ccccc2)cc1	3291

(cont.)
SMILES	Bead autofluor
COC(=O)C1=C(c2ccc(OCc3ccccc3)c(F)c2)C[C@@H]2CC[C@H]1N2C	3673
C#CCN(C[C@@H]1[C@@H](OC(=O)NCc2ccc(OC)c(OC)c2)[C@@H](OC(=O)NCc2ccc(OC)c(OC)c2)CN(C(=O)OC(C)C)N1C(=O)OC(C)C)S(=O)(=O)c1ccc(C)cc1	3281
CN1OC[C@@H]2CN(C(=O)C(C)(C)C)[C@H](c3cccc(Oc4ccccc4)c3)C[C@@H]21	3376
CC(C)C[C@H]1CNC(=S)N1C[C@H]1CCCN1C[C@H](Cc1ccccc1)N1C[C@H](CC(C)C)N(CCc2ccccc2)C1=S	6159
OCc1ccccc1-c1ccc2nncn2c1	3620
C[C@@H]1CN([C@H](C)CO)C(=O)CCCn2nncc2CO[C@@H]1CN(C)S(=O)(=O)c1ccccc1	3300
C[C@H]1CN([C@@H](C)CO)C(=O)c2cc(Br)cnc2O[C@@H]1CN(C)C(=O)NC1CCCCC1	3785
Cc1ccn2c(Cc3ccccc3)c(-c3ccc(F)cc3)nc2c1	3487
COc1cccc(CNc2nc3cc(-c4csc5ccccc45)sc3c(=O)n2C)c1	4092
COc1cccc(C2CC(=O)Nc3cc(C)c(C)cc32)c1 (stereo unspecified)	3482
CC1(C(=O)NS(=O)(=O)c2cccc(F)c2)CCN1C(=O)c1ccccc1CCc1ccccc1 (stereo unspecified)	3585
CCc1nc2c(OCc3cccc(Cl)c3)cccn2c1N(C)C(=O)C1CC1	2963
O=C(NC(=S)Nc1cccnc1)c1cccc(Cl)c1	3605
C[C@@H]1CN([C@@H](C)CO)S(=O)(=O)c2ccc(-c3cccc(C#N)c3)cc2O[C@@H]1CN(C)C(=O)c1ccc(F)cc1	3264
COCCNC(=O)C1CCCN(Cc2ccc(Cl)cc2)CC1 (stereo unspecified)	3649
O=C(NCc1cccnc1)c1cc(C2CCCCN2S(=O)(=O)c2cccs2)on1 (stereo unspecified)	3717
CCc1nc2ccc(C(=O)NCCCN3CCCC3=O)cn2c1N(CC)CCOC	3770
CCN(CC)S(=O)(=O)c1ccc(C(=O)NC(=S)N2CCN(c3ccccc3O)CC2)cc1	3013
CCn1c(SCC(=O)N(C)c2c(N)n(Cc3ccccc3)c(=O)[nH]c2=O)nnc1-c1cccs1	3672
COc1cccc(/C=C/C(=O)OCC(=O)NC2CCCCCC2)c1	3151
O=C(Nc1ccc(F)c(Cl)c1)C1Cc2c(-c3ccccc3Oc3ccccc3)ccnc2O1 (stereo unspecified)	3557
COC(=O)[C@]12CCCCC=C1N(Cc1cccc3ccccc13)C(=O)[C@H](CC(=O)N1CCN(C(=O)c3ccco3)CC1)C2	5058
Cc1cc(C(O)c2ncc(-c3ccccc3F)[nH]2)ccc1F (stereo unspecified)	3723
Nc1cccc(SC2CC(=O)N(c3ccc(Cl)cc3C(=O)c3ccccc3)C2=O)c1 (stereo unspecified)	3629
CC1=C(C(=O)N(C)C)CC(CC(=O)NCCCCc2ccccc2)C(=O)N1Cc1ccc(C(C)(C)C)cc1 (stereo unspecified)	4363
CCOC(=O)C(c1c(O)c2ccccc2oc1=O)c1c(O)c2ccccc2oc1=O	5914
O=C(CSc1nnc2n1CCCCC2)NCc1ccccc1	3897
CC(C)c1ccc(C(c2c(O)c3ccccc3oc2=O)c2c(O)c3ccccc3oc2=O)cc1	3959
CC1=C(C(=O)N2CCCCCC2)CC(CC(=O)NCCCN(C)C)C(=O)N1Cc1ccccc1 (stereo unspecified)	6208
CC1CC2CC(=O)CCC2(C)C2CCC3(C)C(O)CCC3C12 (stereo unspecified)	3496
CC(C)N1CCCC(C)(C(=O)Nc2nc3ccccc3[nH]2)C1 (stereo unspecified)	2806
O=c1[nH]c(SCc2ccc(OC(F)(F)F)cc2)nc2c1CCC2	3843
CNc1ncnc2c1ncn2[C@H]1CN(Cc2ccc(F)cc2)C[C@@H](CO)O1	2895
OC(CNC1CCCCC1)CON=C1CCSc2c(Cl)cccc21 (stereo unspecified)	3685
C[C@H](CO)N1C[C@H](C)[C@@H](CN(C)C(=O)C2CCOCC2)Oc2ncc(Br)cc2C1=O	3855
CC(=NNC(=S)Nc1ccccc1)c1ccccn1	4583
CCOC(=O)C1(C)CCCN1C(=O)c1cncc(Br)c1 (stereo unspecified)	3091
Cc1cccc(NC(=O)c2ncn3c2C(=O)NC[C@@H]3C)c1	3637
COCCNC(=O)C1(C)CCCN(CCC(=O)c2ccc(Br)cc2)C1 (stereo unspecified)	3823
COCCCn1cc(CN2CC(N3CCCCC3)CS2(=O)=O)nn1 (stereo unspecified)	5662
CN(C)Cc1csc(NC(=O)Nc2ccccc2Oc2ccccc2)n1	3652
COc1ccc(-c2cc3nc(C)cc(N4CCN(C(=O)c5ccoc5)CC4)n3n2)cc1	2788
CC(=O)c1cccc(-c2ccnc3c2CC(C(=O)NCc2ccccc2)O3)c1 (stereo unspecified)	4009
O=C(Nc1cccc(C(F)(F)F)c1)C1CC(=O)N(Cc2ccco2)C1 (stereo unspecified)	3413
COc1ccc(-c2ccc(C(=O)Nc3ccccc3)c3occc23)c(C)c1	3816
CN[C@@H](CO)C(=O)NC[C@H]1O[C@@H](n2cnc3c(N)ncnc32)[C@H](O)[C@@H]1O	5779
CCC(=O)N1CCCC(C(=O)Nc2nc3ccccc3n2C)CC1 (stereo unspecified)	3813
Cc1ncc(C(O)c2ccc(N(C)C)cc2)n1Cc1ccccc1 (stereo unspecified)	4007
CCCn1nc(C(=O)Nc2cccc(S(=O)(=O)N3CCOCC3)c2)c2ccccc2c1=O	3881
COc1ccc(CCNC(=O)Nc2ccc3c(c2)c(=O)n(C)n3Cc2ccc(F)cc2)cc1OC	2738
Cc1oc2cc3oc(=O)c(CCC(=O)N4CCC(C(=O)O)(c5ccccc5)CC4)c(C)c3cc2c1C	4004
C[C@H](CO)N1C[C@H](C)[C@@H](CN(C)Cc2ccccc2)OCc2cnnn2CCCC1=O	3566
O=S1(=O)C[C@H](N2CCC(Cc3ccccc3)CC2)[C@@H](COCc2ccccc2)N1	5510

Screening results: PubChem, NMMLSC

This is a subset; rates above refer to the full screens.
